High-throughput results (PubChem)
rRNA inh HTS – inhibitors of bacterial rRNA selective over humanized ribosomes. 350,000 tested, 1.6% active. GFP signal change (wild-type ribosome), % (concentration not given with the values). AID 720706. E. coli WT GFP vs humanized-ribosome RFP mutants, fluorescence, 24 h; hits give low values; DMSO median 0, no signal -100;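 active means significant combined selectivity score with lowered wild-type GFP, culture density cut under 30%, mutant RFP and density less affected; inactive means any of these conditions unmet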; further: one replicate is shown; some compounds called inactive have numbers as strong as hits
rRNA inh HTS OD600 – second read-out of rRNA inh HTS, no call of its own (marks repeat the call); OD600 change, %; measured here: OD600 growth;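 optical density of the mix in the first replicate; 0 = DMSO median and -100 = no signal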
rRNA inh HTS RFP – recorded beside rRNA inh HTS, whose call it bears; RFP signal change, %; measured here: RFP humanized mutant strains;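 first replicate; 0 = DMSO median and -100 = no signal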
* = called active by the depositor. A portion of the library; rates above refer to the full screens.

CO[C@H]1CN(C)C(=O)c2cc(NC(=O)Nc3ccccc3)ccc2OC[C@@H](C)N(C(=O)Nc2c(C)noc2C)C[C@H]1C was read as rRNA inh HTS -4, rRNA inh HTS OD600 -6 and rRNA inh HTS RFP 0.7.
`CCCNC(=O)N1CCC2(CC1)CN(C(=O)COC)[C@H](CO)c1[nH]c3cc(OC)ccc3c12` gave rRNA inh HTS 1, rRNA inh HTS OD600 21 and rRNA inh HTS RFP -0.4.
`CN1c2ccc(-c3ccccc3F)cc2[C@H]2[C@H](CCN2C(=O)c2ccccn2)[C@@H]1CO` gave rRNA inh HTS -4, rRNA inh HTS OD600 -26 and rRNA inh HTS RFP 6.9.
`COc1ccccc1CNC(=O)C[C@@H]1CC[C@@H]2[C@H](COc3ccc(NC(=O)Nc4ccc(F)c(F)c4)cc3C(=O)N2C)O1` gave rRNA inh HTS -9, rRNA inh HTS OD600 -16 and rRNA inh HTS RFP 3.3.
O=C(CN1CCOCC1)NCC[C@@H]1CC[C@H](NC(=O)Nc2ccc(C(F)(F)F)cc2)[C@H](CO)O1 was read as rRNA inh HTS -5, rRNA inh HTS OD600 -2 and rRNA inh HTS RFP -2.6.
For C[C@@H]1CN([C@@H](C)CO)C(=O)Cc2cc(NC(=O)Nc3ccccc3)ccc2O[C@H]1CN(C)Cc1ccc(Cl)c(Cl)c1 the results were rRNA inh HTS 3, rRNA inh HTS OD600 12 and rRNA inh HTS RFP 2.0.
Screening C[C@@H]1CN([C@H](C)CO)C(=O)CCCn2cc(nn2)CO[C@@H]1CN(C)S(=O)(=O)c1cccs1 returned rRNA inh HTS 1, rRNA inh HTS OD600 -1 and rRNA inh HTS RFP -1.6.
Screening COc1cccc(NC(=O)N2CC(=O)N3[C@H](C2)[C@@H](c2ccc(C#CC4CCCC4)cc2)[C@@H]3CO)c1 returned rRNA inh HTS 5, rRNA inh HTS OD600 3 and rRNA inh HTS RFP 0.6.
`COc1ccc(S(=O)(=O)N(C)C[C@H]2Oc3ccc(NS(C)(=O)=O)cc3CC(=O)N([C@@H](C)CO)C[C@@H]2C)cc1` gave rRNA inh HTS 3, rRNA inh HTS OD600 8 and rRNA inh HTS RFP -0.7.
Screening CCC(=O)Nc1ccc2c(c1)OC[C@@H](C)N(C(=O)C1CCC1)C[C@H](C)[C@H](OC)CN(C)C2=O returned rRNA inh HTS 0, rRNA inh HTS OD600 6 and rRNA inh HTS RFP -1.1.
For COc1cccc(CNC(=O)C[C@H]2CC[C@H](NC(=O)C3CCOCC3)[C@@H](CO)O2)c1 the results were rRNA inh HTS 2, rRNA inh HTS OD600 4 and rRNA inh HTS RFP -2.4.
Screening O=C(NC1CCCC1)C1c2ccccc2OCC(=O)N1CC(F)(F)F (stereo unspecified) returned rRNA inh HTS 6, rRNA inh HTS OD600 4 and rRNA inh HTS RFP -1.0.
Screening Cc1ccc(S(=O)(=O)NC(=O)Cn2nnc(-c3ccccc3)c2COc2ccc3ccccc3c2)cc1 returned rRNA inh HTS -7, rRNA inh HTS OD600 6 and rRNA inh HTS RFP 7.1.
Screening CCCCCCN1C[C@@H](O)[C@H](n2cc(-c3ccc(F)cc3)nn2)C[C@@H]1c1ccccc1 returned rRNA inh HTS 3, rRNA inh HTS OD600 3 and rRNA inh HTS RFP -0.8.
`COc1ccc(NC(=O)N2CC(=O)N3[C@H](CO)[C@H](c4ccc(C#CCC5CCCC5)cc4)[C@@H]3C2)cc1` gave rRNA inh HTS 3, rRNA inh HTS OD600 -3 and rRNA inh HTS RFP 30.
For CN1C[C@@H](CO)O[C@@H](n2cnc3c(N4CCOCC4)ncnc32)C1 the results were rRNA inh HTS 6, rRNA inh HTS OD600 2 and rRNA inh HTS RFP -0.1.
O=C(Nc1ccc(OCCO)cc1)c1csc([C@H]2C[C@H](O)[C@@H](CO)O2)n1 was read as rRNA inh HTS 19, rRNA inh HTS OD600 27 and rRNA inh HTS RFP -3.1.
Screening O=C(C[C@H]1C=C[C@H](NC(=O)C2CC2)[C@@H](CO)O1)Nc1nccs1 returned rRNA inh HTS 1, rRNA inh HTS OD600 4 and rRNA inh HTS RFP -0.8.
For C[C@H]1CN([C@@H](C)CO)C(=O)c2cccc(NC(=O)Nc3ccccc3)c2O[C@H]1CN(C)C(=O)Nc1ccc(C(F)(F)F)cc1 the results were rRNA inh HTS -5, rRNA inh HTS OD600 -10 and rRNA inh HTS RFP -1.3.
`C[C@@H]1CCCCO[C@@H](CN(C)Cc2ccc3c(c2)OCO3)[C@@H](C)CN([C@@H](C)CO)C(=O)c2cc(NC(=O)Nc3ccc(F)cc3)ccc2O1` gave rRNA inh HTS -3, rRNA inh HTS OD600 -27 and rRNA inh HTS RFP 14.
Screening COC(=O)C[C@H]1CC[C@H]2[C@@H](COc3ccc(NC(=O)Nc4ccc(Cl)cc4)cc3C(=O)N2C)O1 returned rRNA inh HTS -7, rRNA inh HTS OD600 -19 and rRNA inh HTS RFP 3.8.
`COc1ccc2c3c(n(C)c2c1)[C@H](CO)N(S(=O)(=O)c1ccc(C)cc1)CC31CCN(S(=O)(=O)c2ccc(C)cc2)CC1` gave rRNA inh HTS -1, rRNA inh HTS OD600 8 and rRNA inh HTS RFP -1.0.
Cc1c(NC(=O)COC(=O)c2cccc(F)c2)c(=O)n(-c2ccccc2)n1C was read as rRNA inh HTS 8, rRNA inh HTS OD600 18 and rRNA inh HTS RFP -1.6.
COCC(=O)N1[C@H](C#N)[C@@H](c2ccccc2C2=CCCCC2)[C@H]1CO was read as rRNA inh HTS -3, rRNA inh HTS OD600 22 and rRNA inh HTS RFP -0.7.

Molecules from the list above containing a CF3 group (3):
O=C(CN1CCOCC1)NCC[C@@H]1CC[C@H](NC(=O)Nc2ccc(C(F)(F)F)cc2)[C@H](CO)O1 was read as rRNA inh HTS -5, rRNA inh HTS OD600 -2 and rRNA inh HTS RFP -2.6.
Screening O=C(NC1CCCC1)C1c2ccccc2OCC(=O)N1CC(F)(F)F (stereo unspecified) returned rRNA inh HTS 6, rRNA inh HTS OD600 4 and rRNA inh HTS RFP -1.0.
For C[C@H]1CN([C@@H](C)CO)C(=O)c2cccc(NC(=O)Nc3ccccc3)c2O[C@H]1CN(C)C(=O)Nc1ccc(C(F)(F)F)cc1 the results were rRNA inh HTS -5, rRNA inh HTS OD600 -10 and rRNA inh HTS RFP -1.3.

Next part:
`COc1cccc(S(=O)(=O)N[C@H]2CC[C@@H](CCn3cc(-c4ccccc4)nn3)O[C@H]2CO)c1` gave rRNA inh HTS -2, rRNA inh HTS OD600 -4 and rRNA inh HTS RFP 1.2.
Screening CCc1nc2c(OCc3ccc(OC(F)F)cc3)cccn2c1N(C)C(=O)c1cccs1 returned rRNA inh HTS 10, rRNA inh HTS OD600 -27 and rRNA inh HTS RFP -2.8.
`COc1ccc(CN(C)C[C@H]2Oc3ccc(NC(=O)NC(C)C)cc3CC(=O)N([C@H](C)CO)C[C@H]2C)cc1` gave rRNA inh HTS 2, rRNA inh HTS OD600 -1 and rRNA inh HTS RFP 0.1.
COc1ccc(S(=O)(=O)N(C)C[C@@H]2Oc3ncccc3C(=O)N([C@H](C)CO)C[C@@H]2C)cc1 was read as rRNA inh HTS -1, rRNA inh HTS OD600 8 and rRNA inh HTS RFP -4.9.
C[C@H]1CCCCO[C@@H](CN(C)C(=O)CCCN(C)C)[C@@H](C)CN([C@@H](C)CO)C(=O)c2cc(NC(=O)Nc3ccccc3)ccc2O1 was read as rRNA inh HTS -3, rRNA inh HTS OD600 1 and rRNA inh HTS RFP -2.2.
Screening C[C@@H]1CCCCO[C@H](CN(C)S(=O)(=O)c2ccc(F)cc2)[C@@H](C)CN([C@H](C)CO)C(=O)c2cc(NS(=O)(=O)c3cccs3)ccc2O1 returned rRNA inh HTS -1, rRNA inh HTS OD600 -4 and rRNA inh HTS RFP 2.4.
COc1ccc2c3c([nH]c2c1)[C@H](CO)N(C(=O)NC(C)C)CC31CCN(C(=O)c2ccncc2)CC1 was read as rRNA inh HTS 1, rRNA inh HTS OD600 6 and rRNA inh HTS RFP -2.6.
For C[C@@H]1CN([C@@H](C)CO)C(=O)c2cccc(NC(=O)c3ccc(-c4nccs4)cc3)c2O[C@H]1CN(C)C(=O)Nc1ccc2c(c1)OCO2 the results were rRNA inh HTS -1, rRNA inh HTS OD600 7 and rRNA inh HTS RFP 0.3.
CN(C)C(=O)c1ccc(-c2ccc3c(c2)[C@H]2[C@H](CCN2C(=O)C2CCCCC2)[C@@H](CO)N3C)cc1 was read as rRNA inh HTS -20, rRNA inh HTS OD600 -60 and rRNA inh HTS RFP 7.5.
`CO[C@H]1CC[C@@H]2CCN(C)C(=O)[C@@H](C)[C@H](OC)CN(C)C(=O)c3cccc(C#N)c3OC[C@H]1O2` gave rRNA inh HTS 5, rRNA inh HTS OD600 14 and rRNA inh HTS RFP -4.3.
For COc1cc([N+](=O)[O-])c(C)cc1NC(=O)c1ccc(OC)c(OC)c1 the results were rRNA inh HTS 10, rRNA inh HTS OD600 13 and rRNA inh HTS RFP -0.7.
Screening CCC(=O)Nc1ccc2c(c1)C(=O)N(C)[C@H]1CC[C@@H](CC(=O)N[C@@H](C)c3ccccc3)O[C@@H]1CO2 returned rRNA inh HTS 0, rRNA inh HTS OD600 2 and rRNA inh HTS RFP 1.3.
C[C@@H]1CN([C@H](C)CO)C(=O)c2cc(NC(=O)CCCN(C)C)ccc2O[C@@H]1CN(C)S(=O)(=O)c1ccccc1 was read as rRNA inh HTS 5, rRNA inh HTS OD600 2 and rRNA inh HTS RFP 1.2.
`CC(C)NC(=O)Nc1cccc2c1O[C@@H](CN(C)C(=O)NC(C)C)[C@@H](C)CN([C@@H](C)CO)C2=O` gave rRNA inh HTS 5, rRNA inh HTS OD600 2 and rRNA inh HTS RFP 1.1.
`CCC(=O)N1[C@H](C(=O)N2CCc3ccccc3C2)[C@@H](CO)[C@@H]2Cn3c(cccc3=O)[C@@H]21` gave rRNA inh HTS 4, rRNA inh HTS OD600 0 and rRNA inh HTS RFP -1.6.
`C[C@@H]1CCCCO[C@@H](CN(C)S(=O)(=O)c2cccs2)[C@H](C)CN([C@@H](C)CO)C(=O)c2cc(NS(=O)(=O)c3cccs3)ccc2O1` gave rRNA inh HTS 0, rRNA inh HTS OD600 -12 and rRNA inh HTS RFP -2.2.
For CCC(=O)N1C[C@H](C)[C@H](OC)CN(C)C(=O)c2ccc(NC(=O)COC)cc2OC[C@H]1C the results were rRNA inh HTS 1, rRNA inh HTS OD600 0 and rRNA inh HTS RFP -0.2.
Screening CCc1nc2ccc(C(=O)NCCCn3ccnc3)cn2c1N(C)Cc1cccs1 returned rRNA inh HTS 3, rRNA inh HTS OD600 8 and rRNA inh HTS RFP 0.8.
For COc1ccc(S(=O)(=O)Nc2ccc3c(c2)C(=O)N([C@H](C)CO)C[C@@H](C)[C@H](CN(C)S(=O)(=O)c2ccc(F)cc2)OCCCC[C@@H](C)O3)cc1 the results were rRNA inh HTS 0, rRNA inh HTS OD600 1 and rRNA inh HTS RFP 0.4.
Screening CC(=O)Nc1cccc2c1O[C@H](CN(C)C(=O)OC(C)(C)C)[C@@H](C)CN(C)C2=O returned rRNA inh HTS 2, rRNA inh HTS OD600 -3 and rRNA inh HTS RFP -4.3.
CS(=O)(=O)N1[C@@H](C#N)[C@H](c2ccc(C#CC3CCCC3)cc2)[C@@H]1CO was read as rRNA inh HTS 0, rRNA inh HTS OD600 -38 and rRNA inh HTS RFP 7.0.
`O=C(NCc1cccc(C(F)(F)F)c1)c1ccc2sc([C@H]3C[C@H](O)[C@@H](CO)O3)nc2c1` gave rRNA inh HTS -11, rRNA inh HTS OD600 -15 and rRNA inh HTS RFP -0.5.
For COCC#Cc1ccc2c(c1)O[C@H](CN(C)C(=O)c1ccccc1F)[C@H](C)CN([C@@H](C)CO)S2(=O)=O the results were rRNA inh HTS 2, rRNA inh HTS OD600 -10 and rRNA inh HTS RFP 1.8.
Screening O=C(Nc1ccc(NC(=O)c2ccccc2)c2ccccc12)c1ccccc1 returned rRNA inh HTS 10, rRNA inh HTS OD600 14 and rRNA inh HTS RFP 7.8.

Reprinted from the part before: 3 entries, then new ones.
`O=C(NCc1cccc(C(F)(F)F)c1)c1ccc2sc([C@H]3C[C@H](O)[C@@H](CO)O3)nc2c1` gave rRNA inh HTS -11, rRNA inh HTS OD600 -15 and rRNA inh HTS RFP -0.5.
For COCC#Cc1ccc2c(c1)O[C@H](CN(C)C(=O)c1ccccc1F)[C@H](C)CN([C@@H](C)CO)S2(=O)=O the results were rRNA inh HTS 2, rRNA inh HTS OD600 -10 and rRNA inh HTS RFP 1.8.
Screening O=C(Nc1ccc(NC(=O)c2ccccc2)c2ccccc12)c1ccccc1 returned rRNA inh HTS 10, rRNA inh HTS OD600 14 and rRNA inh HTS RFP 7.8.
COC(=O)[C@@]1(Cc2ccc(F)cc2)[C@H]2c3cc(C(=O)N(C)C)n(CC4CC4)c3C[C@H]2CN1C(=O)c1ccccc1 was read as rRNA inh HTS -6, rRNA inh HTS OD600 0 and rRNA inh HTS RFP 3.9.
Screening CCn1nccc1NC(=O)c1csc([C@@H]2O[C@H](CO)[C@H](O)[C@H](O)[C@H]2O)n1 returned rRNA inh HTS 4, rRNA inh HTS OD600 15 and rRNA inh HTS RFP -0.7.
COCCNC(=O)C1(C)CCN(C(=O)c2ccc(OC)c(F)c2)C1 (stereo unspecified) was read as rRNA inh HTS 14, rRNA inh HTS OD600 28 and rRNA inh HTS RFP 1.7.
For CCCN(C)C[C@@H]1Oc2cc(-c3cncnc3)ccc2S(=O)(=O)N([C@H](C)CO)C[C@@H]1C the results were rRNA inh HTS 3, rRNA inh HTS OD600 8 and rRNA inh HTS RFP -2.2.
`O=C(N[C@@H]1C=C[C@@H](CC(=O)N2CCc3ccccc3C2)O[C@H]1CO)C1CC1` gave rRNA inh HTS -1, rRNA inh HTS OD600 2 and rRNA inh HTS RFP -0.4.
